Screens from PubChem BioAssay.
Sa growth inh – inhibitors of Staphylococcus aureus growth at 42 °C; S. aureus RN4220 growth, OD600, 20 h; active compounds read low; relative growth, % (concentration not given with the values); hit rate 0.53% among 170,000; AID 720641;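 active = growth at 42 °C up to 50% and 20 or more points under that at 30 °C, or under 10% at both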;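 note: 300 nL library stock went into each well; scaled to the means of positive and negative controls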
HCMV UL50-53 inh – inhibitors of HCMV UL50-UL53 nuclear egress complex interaction; HTRF UL50-UL53 interaction, normalized percent inhibition; hit rate 0.15% among 190,000; AID 1918969; inhibition, % (concentration not given with the values);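 active = both replicates at 50% or more, plus weaker picks with an unusually low signal ratio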;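 note: stock transfer was 100 nL into about 20 µL; 0% = negative control wells and 100% = wells with untagged competitor protein; inactives centre near -12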
GIV-Gai inh – inhibitors of GIV GBA-motif binding to rat Galpha-i3; hit rate 0.42% among 210,000; Galpha-i3/FITC-GIV peptide fluorescence polarization, 90 min; active compounds read low; scaled: aluminum fluoride 0%, vehicle 100%; AID 1224905; percent of control (FP), % (concentration not given with the values);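 active = replicate mean at 85% of control or lower, very high polarization wells dropped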;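 note: wells of about 15 µL received 100 nL stock; the first replicate is given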
Target sequence (P08753 whole entry, looked up): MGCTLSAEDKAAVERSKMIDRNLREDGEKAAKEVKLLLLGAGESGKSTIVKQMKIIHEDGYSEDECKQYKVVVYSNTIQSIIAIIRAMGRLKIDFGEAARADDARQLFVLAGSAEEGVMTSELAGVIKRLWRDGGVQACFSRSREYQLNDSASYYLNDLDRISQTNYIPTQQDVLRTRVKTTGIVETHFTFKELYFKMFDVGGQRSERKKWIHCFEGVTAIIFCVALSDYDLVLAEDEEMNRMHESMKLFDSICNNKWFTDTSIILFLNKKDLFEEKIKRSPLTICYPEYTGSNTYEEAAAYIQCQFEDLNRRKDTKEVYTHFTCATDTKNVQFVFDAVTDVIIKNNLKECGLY
Sa growth inh second temp – further read-out of Sa growth inh, marked with its call; relative growth, %; measured here: growth at 30 °C;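 optical density after 20 h as mean of two plates; 100% = untreated growth and lower means inhibition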
An asterisk follows results filed as active; · = no result given; & = joins results of further samples. No enrichment for hits (roughly 0.83% active in at least one column).

No.	SMILES	Sa growth inh	Sa growth inh second temp
1	Cc1cc(C)n2c(SCC(=O)N(C)C3CCCCC3)nnc2n1	98	88
2	Cc1cc(NC(=O)C(C)C)cc(-c2nc3ncccc3o2)c1O	91	83
3	S=c1nc2ccccc2c2nc(-c3cccnc3)[nH]n12	89	82
4	COc1ccc(NC(=O)C2CCCCC2)cc1	108	103
5	O=S(=O)(NCC1COc2ccccc2O1)c1ccccc1 (stereo unspecified)	102	93
6	Cc1ccc(C)c(NC(=O)Cn2c(=O)n(CCCS(=O)(=O)C3CCCCC3)c(=O)c3ccccc32)c1	89	92
7	COC(=O)c1sccc1S(=O)(=O)NCc1ccc(S(N)(=O)=O)cc1	94	94
8	CCCNC(c1ccccc1)c1ccncc1 (stereo unspecified)	96	77
9	Cc1nn(CC(=O)N2CCC(Cc3ccccc3)CC2)c(=O)c2cc3occc3n12	·	·
10	COc1cc2nc(SCC(=O)NCc3ccco3)n3nc(CCn4nc(C)cc4C)nc3c2cc1OC	105	89
11	CCN(C(C)=O)c1ccccc1C	106	90
12	Cc1ccccc1OCC(=O)NCCN1CCCC1	99	74
13	Cc1c(C(=O)N2CCOCC2)nnn1-c1ccc2noc(-c3ccc(Br)cc3)c2c1	·	·
14	COc1ccccc1N1CCN(C(=O)C2CCN(S(=O)(=O)c3cccc4nonc34)CC2)CC1	97	97
15	CC(C)OCCCNC(=O)C1c2c(n(C)c3ccccc23)SCC(=O)N1CCC1=CCCCC1 (stereo unspecified)	·	·

No.	HCMV UL50-53 inh	GIV-Gai inh
1	-9	101
2	-11	111
3	-18	104
4	-3	99
5	44	107
6	14	106
7	-19	103
8	-12	106
9	-17	104
10	-1	95
11	7	·
12	-5	104
13	-22	102
14	·	104
15	-2	99

Retrieved by structure from the list above, 6 records:
No.	SMILES	Sa growth inh	Sa growth inh second temp
14	COc1ccccc1N1CCN(C(=O)C2CCN(S(=O)(=O)c3cccc4nonc34)CC2)CC1	97	97
5	O=S(=O)(NCC1COc2ccccc2O1)c1ccccc1 (stereo unspecified)	102	93
13	Cc1c(C(=O)N2CCOCC2)nnn1-c1ccc2noc(-c3ccc(Br)cc3)c2c1	·	·
10	COc1cc2nc(SCC(=O)NCc3ccco3)n3nc(CCn4nc(C)cc4C)nc3c2cc1OC	105	89
15	CC(C)OCCCNC(=O)C1c2c(n(C)c3ccccc23)SCC(=O)N1CCC1=CCCCC1 (stereo unspecified)	·	·
3	S=c1nc2ccccc2c2nc(-c3cccnc3)[nH]n12	89	82

No.	HCMV UL50-53 inh	GIV-Gai inh
14	·	104
5	44	107
13	-22	102
10	-1	95
15	-2	99
3	-18	104

Next records:
No.	SMILES	Sa growth inh	Sa growth inh second temp
16	CC(=O)Nc1ccc(-c2nc(-c3ccccc3)no2)cc1	84	88
17	N#Cc1ccc(S(=O)(=O)N2CCCN(c3ccc(C(F)(F)F)cn3)CC2)cc1	92	66
18	Cc1cccc(NC(=O)c2ccccn2)c1	93	98
19	O=C(NCCN1CCC(Cc2ccccc2)CC1)c1ccc(-c2ccccc2)s1	124	98
20	O=c1cc(-c2cc(Cl)cc3c2OCOC3)oc2ccc(F)cc12	107	82
21	Cn1ccc2cc(N)ccc21	117	14
22	Cc1ccc(S(=O)(=O)CCc2nnc(N)s2)cc1	84	90
23	CC1(C)Cc2c(C#N)c(SCCc3ccccc3)nc(N3CCOCC3)c2CO1	100	96
24	CCOC(=O)c1ccc2c(c1)N(CC(=O)Nc1cc(F)ccc1F)C(=O)c1ccccc1S2	82	86
25	O=S(=O)(Cc1noc(-c2ccc(C(F)(F)F)cc2)n1)c1ccc(Cl)cc1	103	105
26	CCCCn1c(=N)n(CC(=O)OC)c2ccccc21	94	93
27	Cc1sc2ncnc(Oc3ccc(Cl)cc3Cl)c2c1C	82	101
28	CCOC(=O)c1c(C)oc2nc(C)nc(NCCCN3CCN(c4ccc(F)cc4)CC3)c12	93	91
29	COc1cc(OC)cc(C(=O)NCCc2csc(-c3cccc(C)c3)n2)c1	91	81
30	CCOC(=O)c1c(N2C(=O)CCC2=O)sc2c1CCCC2	108	79

No.	HCMV UL50-53 inh	GIV-Gai inh
16	-29	·
17	28	105
18	2	·
19	·	104
20	-27	·
21	·	102
22	-22	105
23	2	101
24	·	96
25	2	106
26	·	100
27	14	·
28	·	105
29	·	103
30	4	104

Next part
No.	SMILES	Sa growth inh	Sa growth inh second temp
31	CCc1c(C)sc2c1CCN(Cc1cccc(OC)c1)C2c1ccccc1 (stereo unspecified)	-1.1*	-0.3*
32	O=C(CC1(O)OC(c2ccc(Cl)cc2)=CC1=O)c1ccc(Cl)cc1 (stereo unspecified)	88	80
33	CC1CN(c2ccc(NC(=S)NN)cc2)CC(C)O1 (stereo unspecified)	100	98
34	CCCN(CCC)C(=O)Cc1c(C)nc2c(-c3ccccc3)c(C)nn2c1C	102	103
35	O=C(CN1CCN(c2ccccc2)CC1)NC(=O)Nc1ccc2c(c1)OCCO2	104	92
36	O=C1NN(c2ccc(Cl)c(Cl)c2)C(=O)/C1=C/C=C/c1ccco1	102	98
37	COC(=O)C(F)c1nc2ccccc2c(=O)[nH]1 (stereo unspecified)	68	88
38	O=C1NC(=O)c2cc(Nc3ccccc3)c(Nc3ccccc3)cc21	·	·
39	CCOC(=O)C1CCN(C(=O)c2cccnc2Oc2ccccc2)CC1	94	93
40	CCNc1nc(NC(C)C)nc(OCCNC(=O)Nc2ccc(Cl)cc2)n1	106	89
41	Cc1cc(C)cc(N2C(=O)C=CC2=O)c1	49	37
42	O=C(C1CCCC1)N1CCC(n2nc(-c3ccccc3)oc2=O)CC1	·	·
43	C=CCn1c(SCc2nnc(SCc3ccc(F)cc3)n2C)nnc1-c1ccccc1	116	81
44	Cc1ccccc1-n1nc2c(c1NC(=O)c1ccc(S(=O)(=O)N3CCCCC3)cc1)CSC2	·	·
45	CC(C)CN(CCNC(=O)c1cc(-c2cccs2)nc2ccccc12)CC(C)C	92	99

No.	HCMV UL50-53 inh	GIV-Gai inh
31	·	114
32	-14	·
33	20	102
34	·	105
35	-9	·
36	14	105
37	-4	·
38	2&-25	135
39	-27	100
40	4	102
41	-8	104
42	-22	102
43	-37	102
44	40*	104
45	-6	105

Continuation.
No.	SMILES	Sa growth inh	Sa growth inh second temp
46	COc1ccc(N2CC(NC(=O)N3CCCC3)CC2=O)cc1 (stereo unspecified)	96	91
47	Cc1ccc2c(c1)OC=CC(C(=O)Nc1ncc(Cc3ccccc3)s1)=C2	·	·
48	Cc1ccc(/C=N/N(C)S(=O)(=O)c2ccc(C)cc2)cc1	96	81
49	Cc1ccc2c(c1)c(-n1cccc1)c1n2CC(C)(C(=O)NC2CCC(C)CC2)N(Cc2ccc(Cl)cc2)C1=O (stereo unspecified)	·	·
50	COC(=O)c1c(C)nsc1NC(=O)Oc1ccccc1	94	91
51	CC(Sc1nncn1C)C(=O)NCCC1=CCCCC1 (stereo unspecified)	90	91
52	O=C1C=CC(=O)N1c1ccc(-c2ccccc2)cc1	106	76
53	CCN1C(=O)c2ccccc2S(=O)(=O)c2ccc(C(=O)NCCCN3CCCCCC3)cc21	91	77
54	CCOC(=O)C1C(=O)OC2(CCCC2)C1C(=O)OCC (stereo unspecified)	106	109
55	O=C(COc1ccc(F)cc1)NC(c1ccc(F)cc1)c1nnc(-c2ccccc2)o1 (stereo unspecified)	·	·
56	O=C(c1ccc2c(c1)CCO2)N1CCN(C(c2ccccc2)c2ccccc2)CC1	105	67
57	Cc1nn(-c2ccc(F)cc2)c(Cl)c1/C=C/C(=O)N1CCNC(=O)C1	94	94
58	O=C(NCCN1CCOCC1)c1cc(-c2ccccc2)nc2ccccc12	·	·
59	CCOC(=O)C(C)Sc1nc2c([nH]c3ccccc32)c(=O)n1-c1ccc(Cl)cc1 (stereo unspecified)	114	94
60	CNC(=O)COC(=O)c1ccc(NC(=O)CC#N)cc1	93	88

No.	HCMV UL50-53 inh	GIV-Gai inh
46	-18	99
47	-22	101
48	·	106
49	2	102
50	-12	·
51	-8	·
52	-8	105
53	-7	107
54	2	104
55	-13	100
56	-16	100
57	-40	·
58	-47	103
59	·	102
60	-21	·

Next results
No.	SMILES	Sa growth inh	Sa growth inh second temp
61	O=C(CSc1nnc2n(Cc3ccco3)c(=O)c3sccc3n12)NC1CCCC1	·	·
62	C#CCSc1nc(C(OC)OC)cc(=O)[nH]1	107	97
63	N#CC(C#N)=C(C#N)c1cc2c([nH]1)CCCC2	101	22
64	O=C([O-])C[n+]1cn(CC(=O)O)c2ccccc21	110	86
65	CC1Oc2ccccc2C(=O)N(CC(=O)c2ccc(Br)cc2)C1=O (stereo unspecified)	·	·
66	Cc1ccc(C)c(N2CCN(C(=O)C3CCCN(Cc4nc(-c5cccc(Cl)c5)oc4C)C3)CC2)c1 (stereo unspecified)	113	95
67	CC(=O)Nc1nc(C)c(Oc2ccc(Cl)cc2Cl)c(=O)[nH]1	104	88
68	Cc1ccc(CNC(=O)c2ccc(CS(=O)(=O)c3ccccc3C)o2)cc1	101	89
69	NC1CCC(c2ccccc2)CC1 (stereo unspecified)	113	74
70	Cc1ccc(/C=C/C(=O)O)cc1S(=O)(=O)N1CCC(C(=O)O)CC1	113	85
71	Cc1cc(NC(=O)Cc2ccccc2)cc(-c2nc3ccccc3o2)c1O	101	94
72	CC1=Nc2ccc(C)cc2/C1=C\c1c(N)n2nc(N3CCOCC3)sc2nc1=O	94	94
73	O=C(NNc1ccccc1C(F)(F)F)C1CCCC1	85	87
74	COCCn1c(SCC(=O)Nc2ccccc2)nc2ccccc21	85	79
75	CN(C)/C=c1\s/c(=C/C(=O)c2cccs2)[nH]c1=O	78	85
76	CN1CCN(C(=O)c2nc(-c3nn(-c4ccccc4)c(=O)n(C)c3=O)no2)CC1	·	·
77	CCOC(=O)N1CCC(c2nnc(-c3ccc(Cl)cc3Cl)o2)CC1	89	88

No.	HCMV UL50-53 inh	GIV-Gai inh
61	12	99
62	-17	109
63	-46	170
64	-20	·
65	8	109
66	-15	109
67	2	101
68	-19	102
69	-4	102
70	·	101
71	3	102
72	-5	98
73	-4	·
74	-25	·
75	-91	73*
76	-122	101
77	2	109

As entered above:
compound 74 in Sa growth inh = 85
compound 72 in Sa growth inh = 94
compound 73 in HCMV UL50-53 inh = -4
compound 75 in HCMV UL50-53 inh = -91
compound 63 in GIV-Gai inh = 170

Exported with bars between the fields: entries from further up.
cpd | mol | Sa growth inh | Sa growth inh second temp | HCMV UL50-53 inh | GIV-Gai inh
64 | O=C([O-])C[n+]1cn(CC(=O)O)c2ccccc21 | 110 | 86 | -20 | ·
65 | CC1Oc2ccccc2C(=O)N(CC(=O)c2ccc(Br)cc2)C1=O (stereo unspecified) | · | · | 8 | 109
66 | Cc1ccc(C)c(N2CCN(C(=O)C3CCCN(Cc4nc(-c5cccc(Cl)c5)oc4C)C3)CC2)c1 (stereo unspecified) | 113 | 95 | -15 | 109
67 | CC(=O)Nc1nc(C)c(Oc2ccc(Cl)cc2Cl)c(=O)[nH]1 | 104 | 88 | 2 | 101
68 | Cc1ccc(CNC(=O)c2ccc(CS(=O)(=O)c3ccccc3C)o2)cc1 | 101 | 89 | -19 | 102
